Source: PubChem BioAssay
Mtb MbtI inh: blocks the Mycobacterium tuberculosis siderophore enzyme MbtI | purified MbtI enzyme, fluorescence intensity read-out | inhibition, %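 (about 17 µg/mL by stock and volumes)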 | hit rate 0.89% among 100,000 | AID 493033;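 active = above 50% in both replicates, above 80% if mildly self-fluorescent; inactive = the rest, strongly fluorescent compounds included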;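 also: 0% = mean of negative and 100% = mean of positive controls; one replicate is shown; some compounds called inactive have numbers as strong as hits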
Polio RdRp inh: poliovirus RNA polymerase inhibition | hit rate 0.66% among 150,000 | P03300 | AID 588519 | % elongation, % (compound at 16.7 µg/mL) | poliovirus polymerase elongation, fluorescence polarization; hits give low values; in the data active = % elongation below about 90%; also: some results filed as inactive read as strong as hits
Target sequence (P03300 1749-2209 limits assumed): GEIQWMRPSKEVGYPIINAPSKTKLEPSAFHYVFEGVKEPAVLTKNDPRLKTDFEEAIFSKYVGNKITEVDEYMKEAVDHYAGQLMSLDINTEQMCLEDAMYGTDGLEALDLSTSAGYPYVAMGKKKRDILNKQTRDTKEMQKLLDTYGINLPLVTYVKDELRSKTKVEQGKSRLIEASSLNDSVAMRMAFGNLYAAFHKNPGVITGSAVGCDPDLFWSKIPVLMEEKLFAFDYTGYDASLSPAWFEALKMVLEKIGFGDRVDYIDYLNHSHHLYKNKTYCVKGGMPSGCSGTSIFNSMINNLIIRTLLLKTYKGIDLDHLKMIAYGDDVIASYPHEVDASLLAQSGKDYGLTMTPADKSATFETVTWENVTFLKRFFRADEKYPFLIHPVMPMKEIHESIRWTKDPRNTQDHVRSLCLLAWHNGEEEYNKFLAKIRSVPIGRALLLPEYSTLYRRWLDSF
MenB inh: inhibitors of Mycobacterium tuberculosis MenB enzyme; AID 540299; MenB enzyme assay, absorbance read-out; some hits fall short of the stated cut; P9WNP5; inhibition, %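 (about 12 µg/mL by stock and volumes)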; hit rate 0.43% among 100,000;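 active = mean of two replicates above 30%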;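 also: 0% = no compound and 100% = wells with inactive enzyme; the first replicate is given; strong numbers were not always called active; inactives centre near -10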
Target sequence (P9WNP5 whole entry, looked up): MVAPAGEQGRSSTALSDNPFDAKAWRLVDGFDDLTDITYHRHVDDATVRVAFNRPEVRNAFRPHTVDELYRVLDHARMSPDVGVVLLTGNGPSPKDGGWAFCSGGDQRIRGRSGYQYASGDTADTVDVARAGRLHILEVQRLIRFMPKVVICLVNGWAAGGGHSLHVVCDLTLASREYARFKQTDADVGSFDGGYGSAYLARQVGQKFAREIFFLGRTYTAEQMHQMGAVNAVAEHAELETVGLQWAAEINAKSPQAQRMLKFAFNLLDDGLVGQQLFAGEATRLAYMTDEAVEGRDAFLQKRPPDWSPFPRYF
Polio RdRp inh intensity: second read-out of Polio RdRp inh, no call of its own (marks repeat the call); % elongation; measured here: total intensity read-out; formula for this scale not given here;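 total fluorescence in place of polarization; lower means less elongation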
* marks the source's active call; other numbers are inactive results; · = not tested or not shown.

(1) O=C(NCC(c1cccs1)S(=O)(=O)c1cccs1)NC1CCCCC1 (stereo not given)
(2) O=C(c1ccco1)N1CCN(C(=O)C2CC(=O)N(c3ccccc3)C2)CC1 (stereo not given)
(3) COc1ccc2c(c1)c(=O)c(S(=O)(=O)c1ccccc1)cn2Cc1ccccc1
(4) CC(C)Oc1ccc(C(=O)NC(=S)N2CCOCC2)cc1
(5) NC(N)=NS(=O)(=O)Cc1ccccc1
(6) CCCc1nc2ccccc2c(C(=O)OC2CCOC2=O)c1CC (stereo not given)

assay / entry	1	2	3	4	5	6
Polio RdRp inh	98	102	101	102	99	100
MenB inh	-6	-15	-13	2	14	-20
Polio RdRp inh intensity	105	103	100	104	103	96
Mtb MbtI inh	-2	-25	-1	11	3	-14

(7) O=C(c1ccc(Cl)cc1)N(Cc1ccccc1)c1ccccn1
(8) CC(=O)Oc1cc2c3c(c(=O)oc2cc1C)CCCC3
(9) O=C1NCCc2c(OCC(=O)N3CCCc4ccccc43)cccc21
(10) O=C(Nc1ccccc1C(F)(F)F)c1ccccc1Cl
(11) CC(CO)(CO)NC(=O)Cc1cc(=O)[nH]c(=O)[nH]1
(12) NC(=O)CSc1nnnn1-c1cccnc1

assay / entry	7	8	9	10	11	12
Polio RdRp inh	101	101	98	104	105	101
MenB inh	·	-5	-24	15	-47	6
Polio RdRp inh intensity	104	99	106	97	105	103
Mtb MbtI inh	-4	-2	-3	7	-7	-4

(13) CCn1c(-c2ccc3c(c2)OCCO3)cnc1SC(C)C(=O)NC(N)=O (stereo not given)
(14) Cn1c(-c2ccccc2)c(/C=N/NC(=O)c2cccs2)c2ccccc21
(15) COc1cc(OC)cc(C(=O)NCC(=O)N2CC(C)CC(C)C2)c1 (stereo not given)
(16) Cc1ccccc1C(=O)Oc1ccc(C#N)cc1
(17) N=c1occ(C(=O)c2cc(Cl)ccc2O)cc1C(=O)NC1CC1
(18) CC1CCN(Cc2ccc(NC(=O)Nc3cn(C)c(=O)c4ccccc34)cc2)CC1

assay / entry	13	14	15	16	17	18
Polio RdRp inh	98	103	103	101	100	101
MenB inh	-18	1	-10	0	-29	-11
Polio RdRp inh intensity	100	107	104	102	104	102
Mtb MbtI inh	-5	25	16	-6	-8	-29

(19) N#Cc1c(N2CCCC(O)C2)nc(N)c2c(N)nc3c(c12)CC(=O)N3C12CC3CC(CC(C3)C1)C2 (stereo not given)
(20) CN1c2ccccc2-c2nc(SCC(=O)c3ccc4c(c3)OCO4)ncc2S1(=O)=O
(21) CC(=O)Nc1ccc(OC(=O)c2cccs2)cc1
(22) CCOC(=O)c1c(NC(=O)c2ccccc2)sc2c1CCCC2
(23) Cn1c(O)c(C2=c3ccccc3=NC2=O)c2ccccc21
(24) CC(C)(C)C(=O)Nc1cccc(-c2cc(-c3c(Cl)cccc3Cl)no2)c1

assay / entry	19	20	21	22	23	24
Polio RdRp inh	39*	100	99	102	101	102
MenB inh	-25	-1	13	·	-29	-23
Polio RdRp inh intensity	76*	104	100	108	102	89
Mtb MbtI inh	-14	13	1	8	30	-4

(25) CCS(=O)(=O)c1ccc(O)c(N=Cc2ccc[nH]2)c1
(26) COC(=O)CC1C(=O)NCCN1C(=O)c1ccc(Cl)cc1 (stereo not given)
(27) S=C(Nc1ccccc1)N1CCn2cccc2C1c1cccs1 (stereo not given)
(28) CC(C)c1ccc(-c2c3c(nc4ncnn24)-c2ccccc2C3=O)cc1
(29) CN1C(=CC#N)N(C)c2ccccc21
(30) CCC(CC)C(=O)Nc1nc(-c2ccccc2)cs1

assay / entry	25	26	27	28	29	30
Polio RdRp inh	106	103	99	104	103	104
MenB inh	·	1	-17	2	-6	-20
Polio RdRp inh intensity	101	105	99	102	118	102
Mtb MbtI inh	-9	1	25	2	56	-3

(31) CCCCC#Cc1cncc(C(=O)O)c1
(32) CC(OC(=O)c1nsc(Cl)c1Cl)C(=O)NCc1cccs1 (stereo not given)
(33) O=C(COC(=O)c1ccccc1)NCC1CCCO1 (stereo not given)
(34) COc1ccc(C2=NN(CC(=O)NCc3ccc4c(c3)OCO4)C(=O)CC2)cc1
(35) COc1ccc(Br)cc1CN(C)C(=O)c1ccno1
(36) Cc1ccc(-c2csc(CC(N)=O)n2)cc1

assay / entry	31	32	33	34	35	36
Polio RdRp inh	100	104	103	99	99	103
MenB inh	-23	8	·	-9	-17	2
Polio RdRp inh intensity	97	99	96	98	103	115
Mtb MbtI inh	-1	1	-7	2	2	·

(37) COc1ccc(CC(=O)Nc2cccc(-c3ccc4nncn4n3)c2)cc1
(38) O=C(Cn1cncn1)N/N=C/c1cc(Br)ccc1O
(39) N#C/C=C\Oc1ccc(Cl)cc1N
(40) CC1(C)NN1CCCN1NC1(C)C (stereo not given)
(41) O=C(CSc1ccccc1C(=O)N1CCN(c2ncccn2)CC1)NC12CC3CC(CC(C3)C1)C2
(42) Cc1ccc2c(c1)N(CCCC(=O)N1CCCCC1)C(=O)CO2

assay / entry	37	38	39	40	41	42
Polio RdRp inh	103	106	101	106	101	102
MenB inh	-2	-49	-6	-19	-2	-18
Polio RdRp inh intensity	100	104	103	110	107	97
Mtb MbtI inh	12	-3	-8	·	2	4

(43) COCC(C)Nc1nc(-c2ccc(OC)cc2OC)cs1 (stereo not given)
(44) Cc1nnc(SCCc2ccccc2)[nH]c1=O
(45) CN(C(=O)CSc1nc(N)nc(N)n1)C1CCCc2ccccc21 (stereo not given)
(46) CC(N/C=C1\C(=O)C2(C)CCC1C2(C)C)c1ccccc1 (stereo not given)
(47) Cn1c(SCc2ccc(F)cc2)nnc1C1COc2ccccc2O1 (stereo not given)
(48) O=C(OCC(=O)N1CCc2ccccc21)c1ccccc1

assay / entry	43	44	45	46	47	48
Polio RdRp inh	106	99	109	98	105	105
MenB inh	-7	1	-20	-13	9	5
Polio RdRp inh intensity	113	102	125	103	109	102
Mtb MbtI inh	5	14	-7	4	-6	-4

(49) CC(C)(C)C(=O)Nc1ccccc1NC(=O)C(C)(C)C
(50) COC(=O)c1ccc(CSc2nc(-c3cccs3)cc(C(F)(F)F)n2)cc1
(51) CN(Cc1cccs1)S(=O)(=O)c1cn(C)c(=O)n(C)c1=O
(52) Cc1nc2c3ccccc3n3c(CCCC(=O)NC4CCCCC4)nnc3n2n1
(53) CC(CCc1ccccc1)NC(=O)NC1CC(=O)N(c2ccccc2)C1 (stereo not given)
(54) COc1cccc2sc(NC(=O)c3ccc(S(=O)(=O)N(C)C)cc3)nc12

assay / entry	49	50	51	52	53	54
Polio RdRp inh	100	103	103	103	100	103
MenB inh	-4	-15	-4	-18	-9	-18
Polio RdRp inh intensity	103	109	109	96	104	110
Mtb MbtI inh	-12	-7	3	-7	-18	-4

(55) COc1cc(S(=O)(=O)NCc2ccc3c(c2)OCO3)c(C)cc1C
(56) O=C(CCCn1c(=O)oc2ccccc21)NCCc1ccc2c(c1)OCCO2
(57) COCCCn1c(C)cc(C(=O)COC(=O)c2cccc(NS(C)(=O)=O)c2)c1C
(58) CC1=NN(c2nc3ccccc3[nH]2)C(=O)/C1=C/N(C)C
(59) O=C(c1ccc(CS(=O)c2ccccc2Cl)o1)N1CCc2ccccc21 (stereo not given)
(60) CCCOc1ccc(Cc2c(O)nc(N)[nH]c2=O)cc1C

assay / entry	55	56	57	58	59	60
Polio RdRp inh	103	104	103	101	98	103
MenB inh	-6	-17	-9	-8	-1	-12
Polio RdRp inh intensity	101	109	95	104	93	102
Mtb MbtI inh	-6	-4	4	37	-7	-14

(61) Clc1ccc(/C=N\n2cnnc2)c(Cl)c1
(62) CCOC(=O)c1oc2ccccc2c1NC(=O)c1ccc(S(=O)(=O)N(C)C)cc1
(63) O=C(NC(C(F)(F)F)C(F)(F)F)OC1CCCC1
(64) CCOP(=S)(Nc1cccc(F)c1)OCC
(65) CN(C)c1ccc(C(O)c2nnc(-c3ccccc3)o2)cc1 (stereo not given)
(66) CCCCc1cc(=O)oc2c(CN3CCCC3)c(O)c(Cl)cc12

assay / entry	61	62	63	64	65	66
Polio RdRp inh	103	102	101	97	102	97
MenB inh	3	-17	-17	-11	-19	-8
Polio RdRp inh intensity	107	106	102	96	106	100
Mtb MbtI inh	·	48	-5	-7	-7	124

(67) COC(=O)C(C)Sc1cc(C)c2ccccc2n1 (stereo not given)
(68) Cc1ccc(NS(=O)(=O)c2ccc(NC(=O)CN3C(=O)c4cccc5cccc3c45)cc2)cc1
(69) OCCn1c(-c2ccc(F)cc2)csc1=Nc1cccc(Cl)c1
(70) O=C(O)c1cccc(Cl)n1
(71) Cc1csc2nc(CSc3nnc4n3CCCCC4)cc(=O)n12
(72) COc1ccc(CN2C(=O)CC(C(N)=O)SC2=Nc2ccccc2)cc1 (stereo not given)

assay / entry	67	68	69	70	71	72
Polio RdRp inh	104	100	101	101	108	102
MenB inh	-3	-16	-1	·	-9	-19
Polio RdRp inh intensity	102	101	103	105	104	98
Mtb MbtI inh	-22	-1	7	8	17	·

(73) O=C(CCC1COc2ccccc2O1)Nc1ccccn1 (stereo not given)
(74) COc1cc(NC(=O)CC2NC3CCCCC3NC2=O)cc(OC)c1 (stereo not given)
(75) COc1ccc(-n2nnc3c(SCC(=O)Nc4cccc(C(F)(F)F)c4)ncnc32)cc1
(76) Cc1cccc(C)c1NC(=O)C1(N2CCN(C(=O)c3ccco3)CC2)CCCCC1
(77) CCNCC(=O)Nc1ccc(Br)cc1
(78) Cc1csc2nc(-c3ccccc3)cn12

assay / entry	73	74	75	76	77	78
Polio RdRp inh	102	100	104	102	106	103
MenB inh	-7	12	9	-19	3	·
Polio RdRp inh intensity	102	102	102	104	106	107
Mtb MbtI inh	-1	-4	8	-4	-8	-5

(79) CCOc1ncccc1C(=O)OCc1cc(C(=O)OC)c(C)o1
(80) Cn1nccc1NC(=S)Nc1ccc(Cl)cc1
(81) Cc1cc(NS(=O)(=O)c2ccc(N=Cc3ccccc3O)cc2)no1
(82) COC(=O)COc1ccc2c(c1)C(=NO)c1cc(OCC(=O)OC)ccc1-2
(83) CCC(C(=O)Nc1cc(C)ccc1C)n1nnc(C(=O)O)c1C(=O)O (stereo not given)
(84) CCc1ccccc1NC(=O)c1cc(C)no1

assay / entry	79	80	81	82	83	84
Polio RdRp inh	107	102	101	102	100	103
MenB inh	11	12	15	-20	-15	3
Polio RdRp inh intensity	99	100	104	105	95	102
Mtb MbtI inh	8	21	1	-3	-3	-8

(85) Cc1ccc(SCCC(=O)O)cc1C
(86) Cc1ccc2c(c1)N(CC(=O)NC(C)(C)C)C(=O)C(C)O2 (stereo not given)
(87) C=CCN1C(=O)/C(=C\c2ccc(N3CCOCC3)cc2C)C(=O)NC1=S
(88) NP1(=O)C=C(c2ccccc2)OC(c2ccccc2)=C1
(89) O=C(c1cccc(Cl)c1)N1CCN(S(=O)(=O)c2ccc(Cl)s2)CC1
(90) CCCS(=O)(=O)N1CCCC(C(=O)N2CCN(c3ccccc3)CC2)C1 (stereo not given)
(91) CCOC(=O)c1cnn(-c2ccccc2)c1NC(=O)Nc1cccc(Cl)c1
(92) COc1ccc(Cl)cc1S(=O)(=O)n1ccnc1
(93) COc1ccc(N2C(=O)CC(SC(N)=Nc3ccccc3)C2=O)cc1 (stereo not given)

assay / entry	85	86	87	88	89	90	91	92	93
Polio RdRp inh	100	101	100	96	101	101	108	99	103
MenB inh	0	7	-65	-8	5	-13	-10	7	-12
Polio RdRp inh intensity	101	101	102	94	93	95	104	102	114
Mtb MbtI inh	1	2	48	17	4	4	-11	7	·
